GLA inh pH 4.5 = inhibitors of human alpha-galactosidase A at pH 4.5 | activity change, negative = inhibition, % at 105 µM | purified enzyme, 4-MU-alpha-Gal fluorescence, pH 4.5 | P06280 | 230,000 tested, under 10 active | AID 1467; inconclusive = small, poorly fitted or top-dose-only inhibition, or a rising curve; inactive = flat fitted curve, though single readings scatter; no compound was filed as active;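 also: 0% = full activity with enzyme and -100% = basal without enzyme; dose as in the result columns while the protocol names 77 µM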
Rango release inh = inhibitors of RanGTP-induced Rango-importin beta complex dissociation. O95149+P62826. Biochemical FRET Rango-importin beta, RanGTP-induced dissociation. 340,000 compounds, 0.071% hits. Potency, µM (series often up to 46.1 µM), for inactives: at the highest dose activity change, negative = inhibition. AID 540253; active means falling FRET ratio curve, often poorly fitted, with flat reads before Ran was added; inconclusive means other falling curves, or compound fluorescence or quenching; inactive means flat or rising ratio curve;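 also: potency is read from the fitted curve at half-maximal effect; % of control where 0% means no effect; nearly all actives have a fitted effect of over 45% in size; -100% = wells without RanGTP and RCC1; the record marks most hits as doubtful in a second field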
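Compounds sat 5 min at room temperature with 0.1 uM Rango biosensor plus 0.25 uM importin beta, then FRET pre-read. RanGTP-RCC1 (0.6 uM Ran, 2mM GTP, 0.2 uM RCC1) added for 45 min, and the CFP/YFP post-read measured blocked complex dissociation.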
Rango-impB inh = Rango-importin beta binding inhibition | Q14974 | Rango CFP/YFP FRET sensor + importin beta, 45 min | Potency, µM (top dose mostly 92.2 µM), for inactives: at the top dose inhibition of complex formation | 340,000 compounds, 0.031% hits | AID 540263; active = rising FRET ratio curve, often small or poorly fitted; inconclusive = mostly compound fluorescence or quenching in the first reads; inactive = flat curves in all reads;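 also: potency is read from the fitted curve at half-maximal effect; 0% = DMSO wells and 100% = buffer wells lacking importin beta; nearly all actives have a fitted effect of over 15% in size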
Target sequence (Q14974 whole entry, looked up): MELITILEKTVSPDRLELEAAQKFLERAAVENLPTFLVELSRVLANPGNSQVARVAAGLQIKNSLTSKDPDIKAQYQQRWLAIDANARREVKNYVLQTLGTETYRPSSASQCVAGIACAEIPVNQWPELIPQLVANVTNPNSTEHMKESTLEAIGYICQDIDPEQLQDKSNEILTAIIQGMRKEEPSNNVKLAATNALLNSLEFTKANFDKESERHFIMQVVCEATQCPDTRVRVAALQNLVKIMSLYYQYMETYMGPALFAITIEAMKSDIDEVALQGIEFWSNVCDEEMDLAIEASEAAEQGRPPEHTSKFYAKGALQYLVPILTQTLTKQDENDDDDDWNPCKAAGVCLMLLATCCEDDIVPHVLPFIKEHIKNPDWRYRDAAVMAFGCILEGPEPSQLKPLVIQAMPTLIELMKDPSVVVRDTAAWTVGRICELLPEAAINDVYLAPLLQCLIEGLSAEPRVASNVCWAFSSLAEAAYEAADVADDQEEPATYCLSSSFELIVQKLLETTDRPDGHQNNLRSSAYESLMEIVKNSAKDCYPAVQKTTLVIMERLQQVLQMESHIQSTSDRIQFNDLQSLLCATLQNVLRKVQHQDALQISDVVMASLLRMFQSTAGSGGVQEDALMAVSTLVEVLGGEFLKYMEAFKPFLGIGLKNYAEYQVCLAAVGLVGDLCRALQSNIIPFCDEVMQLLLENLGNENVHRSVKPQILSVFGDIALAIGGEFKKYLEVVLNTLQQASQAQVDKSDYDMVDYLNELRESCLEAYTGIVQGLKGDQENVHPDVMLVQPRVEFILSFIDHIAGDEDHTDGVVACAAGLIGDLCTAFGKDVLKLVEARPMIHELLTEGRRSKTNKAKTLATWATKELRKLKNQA
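Inhibition scored from the CFP 486 nm/YFP 530 nm FRET ratio 45 min after adding 0.125 microM importin beta to 50 nM Rango biosensor preincubated 5 min with compound (room temperature, PBS with DTT, Tween-20, BSA). No-importin wells as positive control.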
miR-21 FLuc = raises the signal of a miR-21 reporter; AID 2288; 340,000 tested, under 10 active; HeLa miR-21 FLuc reporter, luciferase, 48 h; Potency, µM (titrated, usually from 38.3 µM), for inactives: at the top dose reporter change, positive = more light; active = well fitted rising curve with a large enough effect; inconclusive = small, poorly fitted or top-dose-only effect; inactive = no such curve, though single readings can be large or run the other way;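 also: % of control where 0% means no effect; miR-21 action dims this reporter so a rising signal means less miR-21 action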
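HeLa miR-21-FLuc reporter line, endogenous miR-21; 2000 cells/well in DMEM/10% FBS; compound titration up to ~40uM final, 48 h, 37 degree Celsius; luciferase detection reagent, 15 min lysis, CCD luminescence.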
Active calls of the source: *; ? = inconclusive; . = not tested or not shown. Only part of the results is shown; rates above refer to the full screens.

SMILES	GLA inh pH 4.5	Rango release inh	Rango-impB inh	miR-21 FLuc
COc1ccc(OC)c(N/C(=N/C(=S)Nc2ccccc2)Nc2nc(C)cc(C)n2)c1	-3.5	15.4%	1.5%	-5.9%
CNC[C@H]1Oc2c(NS(=O)(=O)c3ccccc3)cccc2C(=O)N([C@H](C)CO)C[C@@H]1C	.	1.0%	0.3%	.
CCn1c(SCC(=O)N2c3ccccc3CCc3ccccc32)nnc1-c1ccc(OC)cc1	8.5	0.9%	-2.2%	2.0%
Cc1nn2c(C)c(C(=O)Nc3ccccc3)cnc2c1-c1ccccc1	-1.8	-5.7%	-2.1%	9.2%
CCn1cc(C2C3=C(CC(C)(C)CC3=O)N(c3ccc(C)cc3)C3=C2C(=O)CC(C)(C)C3)c(C)n1	.	-10.1%	3.1%	.
Cc1cc(=O)oc2cc3c(cc12)OCCO3	3.1	6.4%	0.6%	0.5%
Cc1nc(C(=O)Nc2ccc(Cl)cc2)sc1C1(C)CC(c2ccccc2)=NO1 (stereo not drawn)	0.4	-0.9%	-2.3%	6.3%
CC12COC3(P(=O)(c4ccccc4)c4ccccc4)CC1CCC23CP(=O)(c1ccccc1)c1ccccc1 (stereo not drawn)	-16.2	23.8%	-1.2%	15.5%
O=C(O)c1ccc(N/N=C/c2cccc3nccnc23)cc1	2.0	?	?	-34.1%
COCCn1c(C)cc(C(=O)COC(=O)c2ccc(N3CCCC3=O)cc2)c1C	-1.5	-3.5%	1.0%	-14.8%
CCCCN(C(=O)c1cnccn1)c1c(N)n(CCC)c(=O)[nH]c1=O	.	-11.3%	?	.
COc1ccccc1-c1cc(C(=O)Nc2cc(C)nn2-c2ccccc2)no1	3.9	0.5%	0.1%	17.6%
CSc1ccc(/C=N/NC(=O)C[n+]2ccccc2)cc1	.	2.7%	2.6%	-0.3%
Cc1ccc(C(=O)N/C(=C/c2ccco2)C(=O)N2CCCCCC2)cc1	.	4.4%	?	-6.2%
Cc1ccc(S(=O)(=O)c2nnn3c2nc(N2CCC(C(N)=O)CC2)c2ccccc23)cc1C	.	-5.2%	-3.6%	0.7%
O=C(NC1=NC2CCCCC2N1)c1ccccc1 (stereo not drawn)	-7.6	23.7%	-1.1%	-48.5%
COCCn1c(C)nc2oc3ccc(Br)cc3c(=O)c2c1=O	-10.9	-20.6%	-2.9%	-11.5%
Nn1cnnc1N/N=C/c1ccc(F)cc1	.	-8.9%	-1.6%	5.5%
Cc1cc(C(F)(F)F)n(-c2nc(C(=O)NNS(=O)(=O)c3ccccc3[N+](=O)[O-])cs2)n1	0.4	-3.0%	2.1%	4.1%
O=C(OCc1ccc2c(c1)OCO2)c1ccc(S(=O)(=O)N2CCCCC2)cc1	9.7	-13.8%	0.9%	-1.8%
CN1CCN(C(=O)C2=C[C@@H](c3ccc(C(F)(F)F)cc3)C[C@@H](OCc3ccc(CO)cc3)O2)CC1	-22.1	9.8%	-1.3%	-4.7%
COc1ccc(NC(=O)Cn2c(=O)n(-c3ccc(OC)cc3OC)c(=O)c3c(C)c(C)sc32)cc1	-17.0	6.3%	-0.9%	1.8%
CC(C)=CC(=O)OCc1csc(CC(=O)Nc2ccccc2C)n1	.	-7.0%	-0.5%	-3.5%
Cc1ccc(-c2nnc(SCC(=O)Nc3cccc(C(=O)N4CCOCC4)c3)n2C)cc1	-0.5	-3.2%	0.9%	-10.2%
CC(CC(=O)N1CCN(c2ccccc2)CC1)c1ccccc1 (stereo not drawn)	3.4	2.8%	7.3%	-5.4%
Cc1ccc([N+](=O)[O-])cc1NC(=S)NCCc1ccccc1	.	54.6%	-0.4%	3.8%
COc1cccc(CNC(=O)CCC2CCCN(C3CCOCC3)C2)c1 (stereo not drawn)	-0.9	3.3%	0.3%	-0.9%
CC(C)CC(c1nnnn1CC1CCCO1)N1CCN(c2cccc(Cl)c2)CC1 (stereo not drawn)	-9.4	6.9%	0.7%	-4.2%
CCOc1cc(/C=N/NC(=O)c2ccncc2)ccc1OC(=O)c1ccco1	.	1.1%	-2.4%	6.2%
COc1ccccc1S(=O)(=O)Cc1ccc(C(=O)NCc2ccccc2)o1	.	-10.6%	-1.2%	3.3%
O=C(C1CCN(S(=O)(=O)N2CCOCC2)CC1)N1CCN(c2ccccc2F)CC1	-4.7	-1.6%	-1.8%	5.3%
CCOc1cc(C(=O)NC(C)CC)cc(OCC)c1OCC (stereo not drawn)	6.0	-18.0%	0.1%	3.1%
CS(=O)(=O)N(C(=O)NC(=O)NC12CC3CC(CC(C3)C1)C2)C1CCCCC1	6.1	-4.5%	3.1%	-5.4%
O=C(c1cccc(Oc2ccccc2)c1)N1CCN(c2ccccn2)CC1	6.3	7.2%	5.2%	-0.5%
CC(C)c1ccc(N=C2NN=C(c3cccs3)CS2)cc1	-7.4	1.7%	0.8%	-25.0%
Cc1cccc(C)c1OCC(O)Cn1c2ccccc2c2ccccc21 (stereo not drawn)	0.4	2.0%	3.4%	6.0%
CCCSc1ccc([C@@H]2[C@H]3C(=O)N(CC)C(=O)[C@H]3[C@]3(C(=O)OC)CCCN23)cc1	.	-0.8%	1.5%	.
O=C(COC(=O)CCCSc1nc2ccccc2[nH]1)Nc1ccc(Cl)cc1	-3.6	0.2%	-0.9%	0.5%
CC(C)CCN1CCN(Cc2ccsc2)CC1CCO (stereo not drawn)	3.8	-9.2%	-1.2%	-3.6%
COc1ccc(/C=N/NC(=O)c2ccncc2)cc1CSc1nc2ccccc2s1	-3.6	1.5%	-2.2%	-0.1%
O=C(Cn1c(=O)n(-c2cccc(C(F)(F)F)c2)c(=O)c2sccc21)NCC1CCCO1 (stereo not drawn)	.	2.1%	-0.4%	-0.7%
COc1ccccc1CNC(=O)[C@@H]1CCCN1C(=O)C1CCN(S(=O)(=O)c2ccc(C)cc2)CC1	4.4	-13.5%	4.5%	2.0%
NS(=O)(=O)c1ccc(Cc2ncc(C(F)(F)F)cc2Cl)s1	3.5	-16.0%	7.6%	-2.0%
c1ccc(COc2ccc(OCCOCCn3cncn3)cc2)cc1	-7.1	14.8%	1.1%	-28.7%
O=C(Cn1[nH]c(=O)c2ccccc2c1=O)NCC1COc2ccccc2O1 (stereo not drawn)	.	-10.5%	?	.
CC(C)(C)OC(=O)N1CCCC(C(=O)Nc2cccc(C(=O)NCCc3ccccc3)c2)C1 (stereo not drawn)	.	-6.7%	0.3%	.
COC(=O)c1ccc(NC(=O)c2cn(-c3cccc(C)n3)cn2)cc1	3.7	0.1%	-2.5%	-1.5%
COc1ccc(N2CCN(C(C)C(=O)Nc3nnc(C)s3)CC2)cc1 (stereo not drawn)	3.3	-7.4%	-3.9%	0.1%
CC1CCCCC12NC(=O)N(CC(=O)NCC(=O)Nc1ccc(F)c(F)c1F)C2=O (stereo not drawn)	.	8.6%	-0.2%	.
C=CCn1c(Cc2cccs2)nnc1SCC(=O)Nc1cc(OC)cc(OC)c1	-2.9	17.6%	0.4%	2.1%
Cc1ccc(Oc2ncc(CN3CCOCC3)s2)cc1	1.2	-10.3%	0.2%	-39.1%
Cc1ccc2c(c1)N(CC(=O)NCCCN1CCN(C)CC1)C(=O)CO2	.	4.4%	-2.3%	-0.5%
CCN1C(=O)/C(=C\c2nc3ccccc3c(=O)n2CC)c2ccccc21	1.1	-8.2%	0.2%	9.4%
O=C(Cn1cc(C(=O)c2ccco2)c2ccccc21)Nc1ccccc1F	-1.4	-1.6%	-0.9%	1.0%
CC(NC(=O)COC(=O)CNC(=O)c1ccc(-c2ccccc2)cc1)c1ccccc1 (stereo not drawn)	.	25.8%	-0.6%	.
CC1(C)C2CCC1(CS(=O)(=O)NC(CC(=O)O)c1cccc(Br)c1)C(=O)C2 (stereo not drawn)	.	0.8%	3.8%	0.8%
Cc1nnc(Nc2ccc(Cl)cc2)s1	3.0	-0.8%	1.0%	-13.9%
Cc1cc(C)nc(/N=C(\N)Nc2ccc(C(C)C)cc2)n1	-21.3	-0.7%	-0.6%	?
O=C(NN=C1CCC(c2ccccc2)CC1)c1cc2c(s1)CCCC2 (stereo not drawn)	1.1	-6.6%	-1.0%	-3.4%
CN(C)/C=C(/C(=O)c1ccc(Cl)cc1Cl)S(=O)(=O)c1ccc(Cl)cc1	1.5	0.2%	0.6%	-24.8%

Profiles, looked up by structure.
Entry for `CC1(C)C2CCC1(CS(=O)(=O)NC(CC(=O)O)c1cccc(Br)c1)C(=O)C2` (stereo not drawn) = GLA inh pH 4.5 = .; Rango release inh = 0.8%; Rango-impB inh = 3.8%; miR-21 FLuc = 0.8%
Entry for `CC(C)(C)OC(=O)N1CCCC(C(=O)Nc2cccc(C(=O)NCCc3ccccc3)c2)C1` (stereo not drawn) = GLA inh pH 4.5 = .; Rango release inh = -6.7%; Rango-impB inh = 0.3%; miR-21 FLuc = .
Entry for `Cc1ccc(Oc2ncc(CN3CCOCC3)s2)cc1` = GLA inh pH 4.5 = 1.2; Rango release inh = -10.3%; Rango-impB inh = 0.2%; miR-21 FLuc = -39.1%

(list continues)
SMILES	GLA inh pH 4.5	Rango release inh	Rango-impB inh	miR-21 FLuc
Cc1cccc(C)c1NC(=O)COn1nnc2ccc(C(F)(F)F)cc21	-2.6	6.7%	-4.7%	-4.1%
Cc1ccccc1CCNC(=O)C1CC(O)CN1C(=O)Nc1ccccc1 (stereo not drawn)	.	12.5%	0.2%	-5.3%
O=S(=O)(c1cc(Cl)sc1Cl)N1CCCC1	-1.0	-11.2%	3.5%	-5.0%
CCOC(=O)/C=c1\s/c(=C\c2c(OCC)ccc3ccccc23)c(=O)n1CC(=O)NCC1CCCO1 (stereo not drawn)	-4.6	?	?	3.6%
Cc1nc2ccccc2nc(C)c1=NOCc1cccc(Cl)c1	-6.5	-5.3%	0.2%	-9.9%
CCOc1ccc(-c2c(=O)n(OCc3nc4ccccc4[nH]3)c3ccccc3[n+]2[O-])cc1	1.8	-11.1%	?	-47.3%
COc1ccc(CN2CCn3ncc(C(=O)Nc4ccccc4)c3C2=O)cc1	-2.2	-19.4%	1.6%	-32.6%
COc1ccc(CN(C)C(=O)CCC(=O)N2CCN(S(=O)(=O)c3ccc(Cl)cc3)CC2)c(OC)c1	.	9.5%	-1.7%	.
COc1ccc(OCCN2C(=O)NC3(CCc4ccccc4C3)C2=O)cc1 (stereo not drawn)	1.7	-4.3%	1.5%	-4.4%
CCN1CCCC1CNS(=O)(=O)c1ccc(Br)cc1 (stereo not drawn)	.	0.1%	0.4%	-6.3%
CCc1ccc(N2CC(C(=O)Nc3nc4ccc(S(C)(=O)=O)cc4s3)CC2=O)cc1 (stereo not drawn)	.	10.3%	-0.6%	8.8%
COCCNC(=S)N/N=C(\C)c1ccccc1O	0.1	4.8%	-0.4%	-20.1%
O=C(Cn1ccc(C(F)(F)F)n1)N=Nc1c(O)[nH]c2ccccc12	0.4	20.7%	-3.1%	-2.6%
CCN(CC)CCOC(=O)c1cccc(Br)c1	-2.8	7.4%	-0.9%	-2.9%
O=C(N/N=C/c1ccc([N+](=O)[O-])cc1)c1cc(C2CC2)[nH]n1	.	-2.9%	-0.6%	-5.8%
CN(CC(=O)Nc1cc(C(F)(F)F)ccc1-n1cncn1)Cc1ccccc1N1CCOCC1	.	5.9%	0.7%	.
Cn1cc(C=O)c2cc(S(=O)(=O)N3CCOCC3)ccc21	-2.0	11.4%	-0.9%	-9.4%
CCOC(=O)c1c(C)c(C(=O)N2CCN(c3cccc(Cl)c3)CC2)c(C)n1C	-7.6	2.4%	0.6%	-7.9%
O=C(Nc1cccc(S(=O)(=O)N2CCCCC2)c1)c1cccs1	.	-5.1%	0.2%	10.3%

Screens deposited in PubChem by National Center for Advancing Translational Sciences (NCATS).
